Screening results from PubChem.
KCNQ2 pot: potentiators of rat KCNQ2 potassium channel | Potassium voltage-gated channel subfamily KQT member 2 (Rattus norvegicus), O88943 | CHO-K1 KCNQ2, FluxOR thallium flux fluorescence; hits give high values | B-score at 10 µM | 310,000 tested, 0.54% active;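 active means fluorescence ratio B-score at least 3 SD of library B-scores, with initial fluorescence B-score within 3 SD, cut at about 5.3 in these data; same plate scores as AID 2156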;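 further: B-score of peak minus minimum over baseline fluorescence ratio after K+ and Tl+ stimulus; positive B-score means potentiation of KCNQ2 with more thallium influx and brighter signal; only the inactives scoring about 0 or higher are listed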
Target sequence (O88943 whole entry, looked up): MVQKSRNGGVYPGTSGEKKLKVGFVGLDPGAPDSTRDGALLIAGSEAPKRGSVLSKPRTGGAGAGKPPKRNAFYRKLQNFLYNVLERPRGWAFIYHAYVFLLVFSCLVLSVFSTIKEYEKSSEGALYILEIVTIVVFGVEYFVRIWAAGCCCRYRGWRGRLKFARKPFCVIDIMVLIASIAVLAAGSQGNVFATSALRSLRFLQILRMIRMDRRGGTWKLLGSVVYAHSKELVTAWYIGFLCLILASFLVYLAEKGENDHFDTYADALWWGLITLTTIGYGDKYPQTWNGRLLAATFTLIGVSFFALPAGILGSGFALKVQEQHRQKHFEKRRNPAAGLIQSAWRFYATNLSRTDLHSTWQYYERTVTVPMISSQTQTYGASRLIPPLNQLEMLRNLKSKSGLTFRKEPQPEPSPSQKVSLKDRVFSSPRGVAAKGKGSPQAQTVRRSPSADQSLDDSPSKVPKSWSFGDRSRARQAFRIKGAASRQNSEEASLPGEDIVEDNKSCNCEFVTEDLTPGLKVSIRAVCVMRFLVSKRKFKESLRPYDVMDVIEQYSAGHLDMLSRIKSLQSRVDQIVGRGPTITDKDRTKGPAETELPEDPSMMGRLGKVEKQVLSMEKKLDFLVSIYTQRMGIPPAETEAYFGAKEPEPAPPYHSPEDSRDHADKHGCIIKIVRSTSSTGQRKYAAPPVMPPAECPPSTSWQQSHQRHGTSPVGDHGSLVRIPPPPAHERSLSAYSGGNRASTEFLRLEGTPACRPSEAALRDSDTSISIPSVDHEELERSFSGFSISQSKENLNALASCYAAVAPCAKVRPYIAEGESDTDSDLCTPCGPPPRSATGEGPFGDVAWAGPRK
KCNQ2 pot baseline: recorded beside KCNQ2 pot, whose call it bears; B-score; compound at 10 µM; measured here: initial fluorescence intensity artifact check;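 brightness before thallium and not channel activity; 0 = typical well and far values either way flag optical interference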
* marks the source's active call; other numbers are inactive results. The list is partial; rates above refer to the full screens.

SMILES | KCNQ2 pot | KCNQ2 pot baseline
O=C(CCNS(=O)(=O)c1ccccc1C(F)(F)F)NNC(=O)c1csc(N2CCOCC2)n1 | 0.6 | -0.67
COc1cc(CNC(=O)c2nc(Cn3nc(C)c(Br)c3C)no2)cc(OC)c1 | 0.36 | 0.03
CC1CN(C(=O)CN2C(=O)NC3(CCCCCCC3)C2=O)CC(C)O1 (centres undefined) | 1.4 | 0.35
COc1cc(OC)c2c(C)cc(=O)oc2c1 | 0.14 | -0.95
C[C@H](NC(=O)C1CCN(S(=O)(=O)c2ccccc2)CC1)C(=O)NCc1cccc(C(F)(F)F)c1 | 2.8 | 0.16
Cn1c(C(=O)N2CCCC(C(=O)c3ccc(C(F)(F)F)cc3)C2)cc(=O)n(C)c1=O (centres undefined) | 0.74 | 2.2
COc1ccc(C2CC(c3ccc(Cl)cc3)n3nc(N)nc3N2)cc1 (centres undefined) | 0.03 | 2
O=C(OCC(=O)c1c[nH]c2ccccc12)c1ccc(Br)o1 | 1.6 | -0.05
CC(C)(C)c1nnc(N/N=C/c2cc(Br)ccc2O)n(N)c1=O | 4.2 | -2.1
COc1ccc(C(=O)CSc2nnc3ccc(-c4ccccn4)nn23)cc1 | 0.02 | 0.23
O=C(O)c1cc2cc(F)ccc2[nH]1 | 0.34 | -0.01
COc1ccc(-c2nnn(CCC(=O)O)n2)cc1 | 0.98 | 1
COc1cc2c(cc1OC)C(c1cccc([N+](=O)[O-])c1)N(C(=O)c1ccccc1C(=O)O)CC2 (centres undefined) | 1.3 | 4.6
O=[N+]([O-])c1ccc(N2CCCCC2)cc1SCCO | 0.06 | -0.77
COc1ccc(-c2ccc(CCC(=O)O)n2NC(N)=O)cc1 | 1.3 | 0.05
O=C(O)c1ccccc1-c1nc2ccccc2[nH]1 | 2.4 | -0.49
O=C(COC(=O)C1CC2C=CC1C2)NCc1ccco1 (centres undefined) | 0.71 | -2
O=S(=O)(c1ccc(OCC(O)CN2CCN(c3ccc(F)cc3)CC2)cc1)N1CCOCC1 (centres undefined) | 1.3 | 0.18
COC(=O)Cn1c(=NC(=O)c2ccc(OC)c(OC)c2)sc2cc(OC)ccc21 | 0.67 | -3.4
O=C(Cn1cccc(C(F)(F)F)c1=O)c1ccc(Cl)cc1 | 1.3 | -2.8
c1ccc(COc2ccccc2CNC2CCCC2)cc1 | 2.2 | -1.3
COc1ccc(CNC(=O)/C=C/c2cc([N+](=O)[O-])ccc2OC(F)F)cc1OC | 0.8 | -1.5
Cc1[nH]nc(SCC(=O)NCc2ccc(Cl)cc2)c1[N+](=O)[O-] | 0.1 | 0.62
CC(C)CCNC(=O)CN(Cc1ccco1)C(=O)c1snc(C(N)=O)c1N | 0.29 | -0.3
CC(=O)c1c(N2CCN(C)CC2)nc(=S)n(Cc2ccccc2)c1C | 0.19 | 1.1
COc1cccc(NC(=O)CN(C)C(=O)c2ccc(COc3ccccc3)cc2)c1 | 0.82 | 0.08
CC(C)CN1C(=O)/C(=C/c2ccco2)NC1=S | 1.6 | 0.85
CSCCC(NS(=O)(=O)c1ccc(Cl)cc1)C(=O)O (centres undefined) | 0.36 | -0.61
O=C(c1cccc(F)c1)N1CCC2(CC1)NCCc1[nH]cnc12 | 0.79 | -0.38
CC1(C)CC(NC(=S)NC2CC2)CC(C)(C)N1 | 0.26 | -0.47
CCOc1cc(-c2nnc(NC(=O)C3=COCCO3)o2)cc(OCC)c1OCC | 0.85 | -0.47
COc1ccccc1NC(=O)CCC(=O)Nc1nnc(C2CCCCC2)s1 | 0.49 | 4.1
COc1ccccc1CNC(=O)N1CCN(S(=O)(=O)c2ccccc2)CC1 | 0.12 | -0.14
Cc1ccc(NC(=O)CSCC(=O)O)cc1 | 2.4 | -1.1
CCN1C(=O)CC(n2c(C)nc3ccccc32)C1=O (centres undefined) | 0.36 | -0.17
CN(Cc1ccco1)C(=O)Cn1cc(S(=O)(=O)N2CCCC2)c(S(=O)(=O)N2CCCC2)c1 | 0.29 | 1.2
O=C1CCC([N+](=O)[O-])C(c2cccc([N+](=O)[O-])c2)N1 (centres undefined) | 1.6 | 0.45
COc1cc(NC(=O)CSc2nc(C3CC3)nc3ccccc23)cc(OC)c1 | 0.42 | -1.4
O=C(Nc1nsc(-c2ccccc2)n1)c1cccs1 | 2.7 | -0.31
Cc1nnc(N/N=C/c2ccc(Br)cc2)n1N | 1.5 | -0.15
CCOc1ccc(N(CC(=O)NCc2ccc(OC)cc2)S(C)(=O)=O)cc1 | 0.04 | 3
Nc1n[nH]c(C(F)(F)F)c1-c1ccccc1 | 1.2 | -0.47
COc1ccc(NC(=O)/C(C#N)=C/c2ccc(-c3ccccc3C(=O)O)o2)cc1 | 0.98 | 0.09
CCOc1ccc(S(=O)(=O)N2CCN(C(=O)c3sccc3C)CC2)cc1 | 0.62 | 1.4
COc1cccc(CNC(=O)C2CCN(S(=O)(=O)c3ccc4c(c3)CC(C)N4C(C)=O)CC2)c1 (centres undefined) | 1.7 | -0.45
CC(=O)Nc1ccc(S(=O)(=O)N(Cc2ccco2)Cc2cc3ccccc3[nH]c2=O)cc1 | 0.25 | 0.33
O=C(CN1CCN(c2ccccn2)CC1)NC1CCCC1 | 0.86 | -1.1
CN(C)C(=O)Cn1c(SCC(=O)NCc2ccc3c(c2)OCO3)nc2ccccc21 | 0.03 | -0.41
NC(=O)Cc1nc(-c2ccc(F)cc2)cs1 | 0.54 | 0.01
CC1(C(=O)O)COC(c2ccc(Cl)cc2)OC1 (centres undefined) | 0.49 | -0.02
The listing continues:
SMILES | KCNQ2 pot | KCNQ2 pot baseline
Cc1ccc(C)c(S(=O)(=O)N2CCCCC2CCNC(=O)C(=O)NCc2ccncc2)c1 (centres undefined) | 0.49 | 0.04
O=C(NCCS(=O)(=O)NC1CCCCC1)c1ccc2c(c1)OCO2 | 0.63 | -0.04
O=C1CCCCC(=O)N(c2ccccc2)c2ccccc21 | 0.01 | 0.44
COc1ccc(C2=NNC(=Nc3cc(S(=O)(=O)N(C)C)ccc3C)SC2)c(OC)c1 | 0.2 | 2.4
Nc1c(C2=NCCO2)nnn1Cc1ccccc1 | 0.93 | -1
Cc1cccc(N2CC(C(=O)Nc3nnc(SCC(=O)NCC4CCCO4)s3)CC2=O)c1 (centres undefined) | 0.08 | -1.7
O=C(NCc1ccco1)C1CC2CCC1C2 (centres undefined) | 0.22 | 0.28
O=C(C[n+]1cc(-c2ccccc2)n2c1CCCCC2)c1ccc(Cl)cc1 | 1.7 | -0.52
O=C(Oc1ccccc1/C=C\C(=O)c1cc2ccccc2o1)c1cccc(F)c1 | 0.18 | 0.61
N#Cc1cnn2c1nc(N1CCOCC1)c1ccccc12 | 2.5 | -1.1
CC(C)CNC(=O)c1ccccc1-c1ccccc1C(=O)O | 0.36 | -0.01
COc1cc(NC(=O)COC(=O)/C=C/c2ccc(Cl)cc2Cl)cc(OC)c1 | 1.7 | 2.2
CCOc1cc(/C=N/NC(N)=S)cc(Br)c1OCc1ccccc1C | 1.4 | 0.84
CN(C)C(CNc1ncnc2sccc12)c1cccs1 (centres undefined) | 0.7 | 0.1
O=C(NCc1cccs1)C1CCN(S(=O)(=O)c2ccc(Cl)cc2)CC1 | 1.1 | -0.98
COc1ccc(CNC(=O)c2c[nH]c3c(OC)cc(OC)cc3c2=O)cc1 | 2.1 | -2.1
Cc1cccc(C(=O)n2c(=S)nc3cc(C)ccn32)c1 | 0.18 | -0.07
COC(=O)c1cnc(SCc2ccc(C)cc2)n1C | 0.83 | 0.74
CCC(=O)N1CCc2cc(S(=O)(=O)N3CCc4ccccc4C3)ccc21 | 0.53 | -1.8
Cc1[nH]c(=O)[nH]c(=O)c1CSc1nnc([C@H](CC(C)C)NC(=O)OC(C)(C)C)o1 | 0.46 | 0.06
COCc1ccc([C@@H]2C[C@H]3CN(Cc4cccnc4)C(=O)[C@]34CCCN24)o1 | 0.12 | 3.4
Cc1ccc(NC(=S)Nc2c(C)n(C)n(-c3ccccc3)c2=O)cc1 | 0.89 | -0.24
CCc1ccccc1Oc1coc2cc(O)ccc2c1=O | 1 | 0.23
CCOC(=O)C1(CCCc2ccccc2)CCN(C(=O)CCn2cncn2)CC1 | 0.28 | -1.7
COc1ccc(CNC(=O)c2ccccc2C(=O)O)cc1 | 0.55 | 0.64
Cc1ccc2c(c1)N(CC(=O)NC1CCCCC1)C(=O)c1cccnc1O2 | 0.56 | -0.41
O=C(CCC(=O)Nc1cccc([N+](=O)[O-])c1)NCc1ccccc1 | 1.8 | 0.04
Cc1cnc(C(=O)OCC(=O)N(Cc2ccccc2)C(C)C)cn1 | 0.2 | 1.7
Cn1c(=NC(=O)COc2ccccc2)sc2cc(F)cc(F)c21 | 0.07 | 0
CCOc1ccc(CN2CCCC(N3CCN(c4ccc(OC)cc4)CC3)C2)cc1 (centres undefined) | 0.08 | 1.8
Cc1cc(-c2ccco2)n(CC(=O)NCc2ccco2)n1 | 0.54 | 0.07
CCc1cccc(NC(=O)CCNS(=O)(=O)c2ccc3c(c2)oc(=O)n3C)c1 | 0.58 | 1.2
CCC(C)NC(=O)C1CN(S(=O)(=O)c2ccccc2)CCN1S(=O)(=O)c1ccccc1 (centres undefined) | 0.93 | 0.8
CC1CCCC(C)N1CCCNC(=O)c1ccc2c(c1)NC(=O)c1ccccc1S2 (centres undefined) | 1.4 | 0.38
O=C(O)C(Oc1ccc2cc(-c3ccc(Cl)cc3)c(=O)oc2c1)c1ccccc1 (centres undefined) | 1.5 | -1.7
CNc1oc(-c2ccc(Cl)cc2)nc1C#N | 0.65 | -0.84
CNC(=S)N(CCc1c(C)[nH]c2ccccc12)Cc1cccnc1 | 1.3 | 0.04
CC(C)CCC1CC(CSC(=N)N)OC1=O (centres undefined) | 0.13 | -1.3
Cc1ccc(C)c(-c2cc(C(=O)NCc3cccs3)c3ccccc3n2)c1 | 16* | -1.2*
CCCNc1nc2c(c(=O)[nH]c(=O)n2C)n1CCCc1ccccc1 | 0.52 | 1.5

An excerpt of these results, with values under each structure:
Results follow in this order: KCNQ2 pot | KCNQ2 pot baseline
> O=C(O)C(Oc1ccc2cc(-c3ccc(Cl)cc3)c(=O)oc2c1)c1ccccc1 (centres undefined)
 : 1.5 | -1.7
> CNc1oc(-c2ccc(Cl)cc2)nc1C#N
 : 0.65 | -0.84

The listing continues.
SMILES | KCNQ2 pot | KCNQ2 pot baseline
CC1CN(CCOc2ccc([N+](=O)[O-])cc2)CC(C)O1 (centres undefined) | 0.21 | -1
CC1=CC(c2ccccc2)n2ncnc2N1 (centres undefined) | 1.1 | 0.6
CCN(CC)S(=O)(=O)c1cccc(NC(=O)COc2ncnc3sccc23)c1 | 0.04 | -0.62
COc1ccc(OC)c(NC(=O)c2ccccc2OC(C)=O)c1 | 0.83 | -2.5
O=C1CCCN1CCCNCC(O)c1ccccc1 (centres undefined) | 0.62 | 0
COc1cc(C(=O)Nc2ccc(NC(=O)c3ccco3)nc2)cc(OC)c1OC | 1.4 | -0.91
COc1ccc(N2CC(NS(=O)(=O)c3cccs3)CC2=O)cc1OC (centres undefined) | 1.6 | 0.66
CCCCNC(=O)C1(NC(=O)Nc2ccccc2)CCCCC1 | 0.31 | 0.39
CCC(O)CNC(=O)NC(=C(Cl)Cl)c1ccc(C)c(F)c1 (centres undefined) | 0.28 | 0.84
COCCNC(=S)N/N=C(\C)c1ccc(Cl)s1 | 1.5 | -0.02
CCc1ccc2c(c1)c1nnc(NN)nc1n2CC | 0.48 | 0.14
Cc1ccccc1Oc1ccc(S(=O)(=O)NCCC(=O)O)cc1 | 0.14 | 0.42
Cc1ccccc1NC(=O)CSc1nnc(NC(=O)c2ccco2)s1 | 0.32 | 1.9
COC(=O)c1c(N)sc(C(C)=O)c1C | 0.93 | -0.29
CCc1cccc(CC)c1-n1c(SCC(=O)c2c(N)n(C)c(=O)n(C)c2=O)nnc1-c1cccnc1 | 1.2 | 0.1
C/C(CC(=O)Nc1ccc([N+](=O)[O-])cc1)=N\NC(=O)c1ccccc1[N+](=O)[O-] | 0.36 | 0.8
C=CCNc1ncnc2ccc(Br)cc12 | 2.4 | -0.41
O=C(Cc1c[nH]c2ccccc12)NCc1ccc(Cl)cc1 | 0.63 | -1
NC(=O)c1c(NC(=O)C2COc3ccccc3O2)sc2c1CCN(Cc1ccccc1)C2 (centres undefined) | 0.84 | -0.87
CC(C)CNC(=O)C(=O)NCC1OCCCN1S(=O)(=O)c1ccc2c(c1)OCCO2 (centres undefined) | 0.2 | 0.09
NS(=O)(=O)c1ccc(CCNC(=O)CSc2cccs2)cc1 | 0.01 | -0.48

Among those listed so far, 13 have a furan ring, fused or not.
SMILES | KCNQ2 pot | KCNQ2 pot baseline
O=C(OCC(=O)c1c[nH]c2ccccc12)c1ccc(Br)o1 | 1.6 | -0.05
O=C(COC(=O)C1CC2C=CC1C2)NCc1ccco1 (centres undefined) | 0.71 | -2
CC(C)CCNC(=O)CN(Cc1ccco1)C(=O)c1snc(C(N)=O)c1N | 0.29 | -0.3
CC(C)CN1C(=O)/C(=C/c2ccco2)NC1=S | 1.6 | 0.85
CN(Cc1ccco1)C(=O)Cn1cc(S(=O)(=O)N2CCCC2)c(S(=O)(=O)N2CCCC2)c1 | 0.29 | 1.2
COc1ccc(NC(=O)/C(C#N)=C/c2ccc(-c3ccccc3C(=O)O)o2)cc1 | 0.98 | 0.09
CC(=O)Nc1ccc(S(=O)(=O)N(Cc2ccco2)Cc2cc3ccccc3[nH]c2=O)cc1 | 0.25 | 0.33
O=C(NCc1ccco1)C1CC2CCC1C2 (centres undefined) | 0.22 | 0.28
O=C(Oc1ccccc1/C=C\C(=O)c1cc2ccccc2o1)c1cccc(F)c1 | 0.18 | 0.61
COCc1ccc([C@@H]2C[C@H]3CN(Cc4cccnc4)C(=O)[C@]34CCCN24)o1 | 0.12 | 3.4
Cc1cc(-c2ccco2)n(CC(=O)NCc2ccco2)n1 | 0.54 | 0.07
COc1cc(C(=O)Nc2ccc(NC(=O)c3ccco3)nc2)cc(OC)c1OC | 1.4 | -0.91
Cc1ccccc1NC(=O)CSc1nnc(NC(=O)c2ccco2)s1 | 0.32 | 1.9
